Screening data deposited in PubChem by National Center for Advancing Translational Sciences (NCATS).
PINK1 modulator: PINK1 expression modulation. PINK1 immunofluorescence, high-content cytometry, 24 h. Potency, µM (doses to about 76.6 µM), for the others: at the top dose activation (PINK1 increase), most hits filed as activators. actives 0.2% (n = 410,000). AID 624263; active = well fitted activation curve with a large enough effect; inconclusive = small, poorly fitted or top-dose-only effect; inactive = flat fitted curve, though single readings scatter; cell line not stated here;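 also: potency is read from the fitted curve at half-maximal effect; % of control where 0% means no effect; nearly all actives have a fitted effect of over 65% in size; a mitochondrial uncoupler was the plate control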
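Measures PINK1 amount and localization on or inside mitochondria by immunofluorescence. Stable cells get compounds at 5 concentrations for 24 hours before fixation and staining; CCCP controls included.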
TRPML1 inh: inhibitors of human TRPML1 channel; activity change, negative = inhibition, % (no concentration beside the values); Q9GZU1; actives 0.02% (n = 390,000); TRPML1-inducible cells, Ca2+ dye fluorescence, FDSS; stronger effect = lower value; inhibition of EC80 agonist-evoked calcium signal; AID 624415; in the data active means activity change below about -50%; inconclusive means about -30% to -50%; inactive means above about -30%;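 also: stimulus is agonist 54-4 at its EC80 concentration; % is scaled to controls: 0 for no effect and ±100 for the full control effect; compound concentration not given in the record; the text of the record puts the active cut at -80%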
Target sequence (Q9GZU1 whole entry, looked up): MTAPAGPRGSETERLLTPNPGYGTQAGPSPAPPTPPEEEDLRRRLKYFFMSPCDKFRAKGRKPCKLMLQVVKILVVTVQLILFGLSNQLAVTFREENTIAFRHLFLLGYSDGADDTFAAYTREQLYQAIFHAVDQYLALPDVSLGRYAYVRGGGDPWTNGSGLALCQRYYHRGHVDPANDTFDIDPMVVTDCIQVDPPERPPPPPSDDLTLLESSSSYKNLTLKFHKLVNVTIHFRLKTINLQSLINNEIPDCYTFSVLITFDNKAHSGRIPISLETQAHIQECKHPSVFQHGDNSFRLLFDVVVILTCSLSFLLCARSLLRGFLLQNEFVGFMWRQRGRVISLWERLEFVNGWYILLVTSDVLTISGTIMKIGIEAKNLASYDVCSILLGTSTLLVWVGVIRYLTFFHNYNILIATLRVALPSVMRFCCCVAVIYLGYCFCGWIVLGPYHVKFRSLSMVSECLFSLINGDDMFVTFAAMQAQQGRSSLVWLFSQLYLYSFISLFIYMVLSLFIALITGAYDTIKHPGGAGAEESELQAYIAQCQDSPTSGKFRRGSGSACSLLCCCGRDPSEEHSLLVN
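TRPML1-DL cells, Tet-induced overnight (~16 h, 37 °C) at 1,500 cells/well, were loaded with Ca8 no-wash dye plus quencher for 45-90 min at room temperature. Compounds were pinned during FDSS kinetic reading; agonist 54-4 at EC80 (4 uM final) then added.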
ClpP mod: qHTS Assay for Activators of ClpP; purified B. subtilis ClpP, FRET peptide cleavage, 20 min; actives 1.9% (n = 340,000); Potency, µM (titrated, usually from 57.5 µM), for inactives: top-dose activity change, negative = active; ATP-dependent Clp protease proteolytic subunit (Bacillus subtilis (strain 168)), P80244; active = well fitted falling curve with a large enough effect; inconclusive = small, poorly fitted or top-dose-only effect; inactive = no such curve, though single readings can be large or run the other way; also: potency is read from the fitted curve at half-maximal effect; the source files actives as falling curves though it sought activators and does not explain the sign; nearly all actives have a fitted effect of over 65% in size; many hits overshoot -100%
Target sequence (P80244 whole entry, looked up): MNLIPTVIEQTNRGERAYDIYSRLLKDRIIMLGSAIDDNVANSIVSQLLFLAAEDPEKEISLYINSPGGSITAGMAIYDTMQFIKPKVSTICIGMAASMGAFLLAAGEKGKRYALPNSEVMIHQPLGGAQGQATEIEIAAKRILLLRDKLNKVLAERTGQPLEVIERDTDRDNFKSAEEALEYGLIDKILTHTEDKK
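ClpP 10 microg/mL final, pH 8 Tris/KCl buffer with BSA, glycerol, Tween-20; compound pinned in; FRET-FV substrate; RT 20 min; Ex320/Em430; ΔFRET vs ADEP 5.8 microM, DMSO, no enzyme.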
Sfp PPTase inh: blocks B. subtilis Sfp PPTase activity; Q9F4F7; Biochemical Sfp PPTase activity, qHTS; Potency, µM, inactives show max response, negative = inhibition, hits mostly inhibitors; actives 3.5% (n = 310,000); AID 1490; active = well fitted inhibition curve with a large enough effect; inconclusive = small, poorly fitted or top-dose-only effect, or another doubt; inactive = no such curve, though single readings can be large or run the other way;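 also: the enzyme is Sfp with the accession as filed and its product quenches rhodamine fluorescence; potency is read from the fitted curve at half-maximal effect; 0% = enzyme reaction without inhibitor and -100% = no enzyme wells; top concentration of the series not given in the record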
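Reaction rates are the 30-min fluorescence difference (ex 525, em 598 nm) in wells containing 15 nM Sfp, 5 uM rhodamine-CoA and 12.5 uM BHQ-2-YbbR at pH 7.6 with 10 mM MgCl2.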
TRPV1 potentiator: human TRPV1 potentiation; TRPV1-expressing cells, Fluo-8 calcium influx, capsaicin EC20 potentiation; host cell line not named in the record; control for the full effect not named in the record; actives 0.02% (n = 320,000); potentiation, % at 8.33 µM; Q8NER1; active means potentiation above 80%; inconclusive means 30% to 80%; inactive means below 30%; also: 0% is about no effect
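Fluo-8 calcium influx in TRPV1-expressing cells, kinetic read (ex 480/em 520 nm). Compound added and read 3 min for agonist activity, followed by capsaicin at EC20 final and 2 min further read for enhancement.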
TRPML1 agonist: agonists of human TRPML1 channel. TRPML1-expressing cells, Ca2+ dye fluorescence, FDSS; host cell line not named in the record; reference of the full effect not given here. actives 0.12% (n = 410,000). activation, % (test concentration not listed). Q9GZU1; in the data active = activation above about 50%; inconclusive = about 30% to 50%; inactive = below about 30%; also: 0% is about no effect; the text of the record puts the active cut at 80%
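Calcium fluorescence on an FDSS kinetic reader gave the read-out. Tet-induced TRPML1-DL cells were plated overnight, dye-loaded (Ca8 with quencher, 45-90 min, room temperature, dark), then read 110 s after compound addition, and again 110 s after 4uM final 54-4 (EC80).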
Menin MLL FP FL: inhibitors of human menin-MLL interaction, wild-type MLL peptide; 290,000 tested, under 10 active; AID 1766; FP activity change, % at 61.4 µM; Fluorescence polarization, fluorescein-MLL peptide displacement from menin; inconclusive = falling polarisation curve, or a change in total fluorescence; inactive = total fluorescence flat and polarisation flat or rising; no compound was filed as active; the % refers to the polarisation; negative = inhibition;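 also: % of control where 0% means no effect; inhibitors lower the polarisation; unlabelled MLL peptide was the positive control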
* = called active by the depositor; u = inconclusive; x = not tested or not shown; ! = a repeat was not active; [ ] = remark or other dose.

The line under a structure holds: PINK1 modulator	Sfp PPTase inh	TRPML1 inh	Menin MLL FP FL	ClpP mod	TRPV1 potentiator	TRPML1 agonist
CCOc1ccccc1OCCCC(=O)Nc1sccc1C(N)=O
  0.3%	-13.0%	6.8	0.8	3.8%	11.3	1.6
COc1ccccc1NCC(=O)N/N=C/c1sccc1C
  -0.2%	3.6%	0.8	1.1	x	3.9	1.8
COc1ccc(S(=O)(=O)N2CCC(C(=O)Nc3cccc(C(C)=O)c3)CC2)cc1C
  4.4%[38.3 µM]	2.1%	-5.9	-0.4	-0.6%	-18.8	3.1
CC(C)CC(=O)Nc1ccc2c(c1)OCO2
  -0.5%	14.2%	19.6	-0.1	x	-1.9	-0.4
CCCCC(=O)Nc1ccc(C(=O)Nc2ccc(OC)cc2[N+](=O)[O-])cc1
  u	10.7%	-14.9	u	3.6%	-12.0	2.9
CC(C)c1ccc(NC(=O)c2ccc(F)c(S(=O)(=O)N3CCc4ccccc4C3)c2)cc1
  -0.5%	x	-19.0	x	-15.2%	x	1.2
Cc1cccc2cc(CN(CC3CCCO3)S(=O)(=O)c3ccccc3)c3nnnn3c12 (centres undefined)
  x	-7.8%	x	0.0	x	0.6	x
COc1cccc(C2C(C(=O)c3sc(C)nc3C)=C(O)C(=O)N2CCN(C)C)c1OC (centres undefined)
  x	15.9%	x	-1.6	x	3.9	x
CCOC(=O)Cn1nc(-c2ccccc2)ccc1=O
  -7.3%[38.3 µM]	13.5%	-13.8	-1.3	-9.0%	3.9	0.5
COc1ccc(OCC(=O)N2CCN(S(=O)(=O)c3ccc(Cl)s3)CC2)cc1
  2.9%	x	5.0	x	-2.9%	-8.5	0.1

7 entries already listed, ordered by molar mass, high to low.
The line under a structure holds: PINK1 modulator	Sfp PPTase inh	TRPML1 inh	Menin MLL FP FL	ClpP mod	TRPV1 potentiator	TRPML1 agonist
CC(C)c1ccc(NC(=O)c2ccc(F)c(S(=O)(=O)N3CCc4ccccc4C3)c2)cc1
  -0.5%	x	-19.0	x	-15.2%	x	1.2
Cc1cccc2cc(CN(CC3CCCO3)S(=O)(=O)c3ccccc3)c3nnnn3c12 (centres undefined)
  x	-7.8%	x	0.0	x	0.6	x
COc1ccc(S(=O)(=O)N2CCC(C(=O)Nc3cccc(C(C)=O)c3)CC2)cc1C
  4.4%[38.3 µM]	2.1%	-5.9	-0.4	-0.6%	-18.8	3.1
CCCCC(=O)Nc1ccc(C(=O)Nc2ccc(OC)cc2[N+](=O)[O-])cc1
  u	10.7%	-14.9	u	3.6%	-12.0	2.9
CCOc1ccccc1OCCCC(=O)Nc1sccc1C(N)=O
  0.3%	-13.0%	6.8	0.8	3.8%	11.3	1.6
CCOC(=O)Cn1nc(-c2ccccc2)ccc1=O
  -7.3%[38.3 µM]	13.5%	-13.8	-1.3	-9.0%	3.9	0.5
CC(C)CC(=O)Nc1ccc2c(c1)OCO2
  -0.5%	14.2%	19.6	-0.1	x	-1.9	-0.4

The list continues:
The line under a structure holds: PINK1 modulator	Sfp PPTase inh	TRPML1 inh	Menin MLL FP FL	ClpP mod	TRPV1 potentiator	TRPML1 agonist
O=C1C2CC=CCC2C(=O)N1c1ccc(NCCc2ccccc2F)c([N+](=O)[O-])c1 (centres undefined)
  -0.4%	13.0%	-10.0	0.1	-1.4%	19.7	0.6
N#Cc1ccc(C(=O)Nc2ccc([N+](=O)[O-])cc2)c(F)c1
  -0.7%	1.7%	1.3	0.4	x	-16.4	0.2
COc1ccc(CC(=O)Nc2cc(-c3cn4cccnc4n3)ccc2OC)cc1
  -0.1%	x	13.3	x	5.0%	x	1.3
COc1ccc(Cc2nc3ccc(C(=O)NCCn4ccnc4C)cc3o2)cc1OC
  1.9%	1.1%	-7.6	-1.8	31.6µM*	0.9	-0.2
O=C(O)C1CCCCC1C(=O)NC1CCCCC1 (centres undefined)
  3.1%[38.3 µM]	-9.0%	7.8	0.5	1.7%	4.0	-0.8
COc1ccc(-c2ncc(CN3CCN(CCC(C)C)C(CCO)C3)cn2)cc1 (centres undefined)
  -1.3%	18.4%	-14.0	-3.0	x	1.4	0.1
Cn1c(NC(=O)c2ccc(F)c(F)c2)cc(=O)n(C)c1=O
  2.8%	11.6%	18.4	3.6	0.3%	-40.0	-0.8
CCOC(=O)C1CCN(S(=O)(=O)c2c(C)[nH]c(=O)[nH]c2=O)CC1
  2.8%	24.0%	-4.9	4.1	0.4%	-3.3	-0.8
O=C(CSc1nc2ccccc2[nH]1)N/N=C/C=C\c1ccccc1[N+](=O)[O-]
  -0.5%	4.4%	11.9	-0.3	1.3%	-5.1	0.1
O=C(NCc1ccccc1)c1ccc(Cl)nc1
  0.2%	-2.4%	9.0	4.9	x	-2.1	-0.5

The line under a structure holds: PINK1 modulator	Sfp PPTase inh	TRPML1 inh	Menin MLL FP FL	ClpP mod	TRPV1 potentiator	TRPML1 agonist
CN1CCN(C(=O)CSc2ccc(C(F)(F)F)cc2[N+](=O)[O-])CC1
  1.2%	2.6%	26.3	2.0	1.5%	-3.3	0.2
CCOc1ccc(C(=O)Nc2c3c(nn2-c2ccc(C)cc2)CS(=O)C3)cc1OCC (centres undefined)
  0.8%	7.3%	-3.0	0.3	-0.8%	-5.3	-0.4
CCOC(=O)c1nn(-c2ccc(C)cc2)c(=O)cc1OCC(=O)Nc1cccc(C)c1
  7.9%	x	-1.7	x	6.3%	-15.7	1.8
O=C(Nc1cc([N+](=O)[O-])ccc1N1CCOCC1)c1cccs1
  27.1%	4.0%	-13.1	x	0.2%	-5.4	0.1
COc1ccc(NC(=O)CS(=O)c2ccc(Cl)c(Cl)c2)cc1 (centres undefined)
  3.0%	8.8%	-18.3	4.0	-0.4%	-13.5	0.8
O=C(Cc1ccc2c(c1)OCCO2)Nc1cccc(S(=O)(=O)N2CCOCC2)c1
  -0.6%	x	-6.0	x	0.9%	-14.3	-0.3
O=C(COC(=O)c1ccc2c(c1Cl)C(=O)c1ccccc1C2=O)NC1CCCCC1
  8.3%	2.9%	-0.8	1.8	x	-5.9	-0.8
CCn1c(=O)c2c(nc(SCC(=O)NCC3CCCO3)n2C)n(C)c1=O (centres undefined)
  -2.3%[38.3 µM]	9.5%	-18.1	2.8	-0.3%	-3.7	1.2
COc1ccccc1NC(=O)c1ccccc1-c1ccccc1C(=O)O
  -2.0%	14.6%	0.7	-6.5	-13.9%	3.0	-0.5
O=C(OCC(=O)N1CCOCC1)c1ccccc1O
  -2.7%	21.6%	-21.3	2.1	x	-3.5	-0.2

The line under a structure holds: PINK1 modulator	Sfp PPTase inh	TRPML1 inh	Menin MLL FP FL	ClpP mod	TRPV1 potentiator	TRPML1 agonist
COc1cccc(CNC(=O)c2ccc(Cl)c(NC3=NC4CS(=O)(=O)CC4S3)c2)c1 (centres undefined)
  -1.3%	19.1%	1.1	x	-0.6%	12.4	0.0
CC1(C)CC(=O)C(N=Nc2ccc(F)cc2)=C(O)C1
  0.8%	-5.0%	x	-0.9	-0.3%	0.1	x
C=CCn1c2ccccc2c(=O)c2cc(C#Cc3ccsc3)ccc21
  x	-14.2%	x	-1.2	x	-13.2	x
CC(Sc1nnc(-c2ccncc2)n1-c1ccc(F)cc1)C(=O)NC1CC1 (centres undefined)
  3.2%	x	7.8	x	-2.1%	2.1	0.5
COc1ccccc1NC(=O)C(=O)NCCc1csc(-c2cccc(F)c2)n1
  0.6%	x	-6.8	x	-3.5%	x	2.8
Cc1cc(Cl)c(OCCN2C(=O)NC(C)(C)C2=O)c(Br)c1
  x	22.7%	-7.4	6.1	1.7%	-21.3	0.0
O=C(C1CCCCC1)N1CCc2ccccc21
  7.7%	5.6%	18.9	-1.2	x	-11.1	1.2
CCCCCCCn1c(=N)n(CC(=O)c2ccco2)c2ccccc21
  -1.1%	-15.0%	8.8	0.3	-1.3%	1.8	-1.1
C=CCn1c(SCCNC(C)=O)nc2cc(-c3ccccc3)sc2c1=O
  2.5%	3.6%	7.8	-0.6	2.2%	-19.5	-0.9
COc1ccccc1CNC(=O)C1CCC(CNS(=O)(=O)c2cccc3cccnc23)CC1 (centres undefined)
  2.9%	8.2%	30.7	x	x	1.7	1.3

Some of these compounds in order of the PINK1 modulator value, lowest first.
structure | PINK1 modulator | Sfp PPTase inh | TRPML1 inh | Menin MLL FP FL
CC1(C)CC(=O)C(N=Nc2ccc(F)cc2)=C(O)C1 | 0.8% | -5.0% | x | -0.9
C=CCn1c(SCCNC(C)=O)nc2cc(-c3ccccc3)sc2c1=O | 2.5% | 3.6% | 7.8 | -0.6
CC(Sc1nnc(-c2ccncc2)n1-c1ccc(F)cc1)C(=O)NC1CC1 (centres undefined) | 3.2% | x | 7.8 | x

Next section:
The line under a structure holds: PINK1 modulator	Sfp PPTase inh	TRPML1 inh	Menin MLL FP FL	ClpP mod	TRPV1 potentiator	TRPML1 agonist
O=C(N=Nc1c(O)[nH]c2ccccc12)c1cccc(S(=O)(=O)Nc2ccccc2Cl)c1
  6.3%	u	-7.4	-4.2	1.2%	6.0	0.2
O=C1CC(N2CCN(c3ccccc3Cl)CC2)C(=O)N1c1ccc(F)cc1 (centres undefined)
  -0.9%[38.3 µM]	-2.9%	7.2	1.0	-1.3%	14.7	0.4
Cc1c(C)c2c(OCC(=O)NCC(O)c3ccccc3)cc3c(c2oc1=O)CCC(C)(C)O3 (centres undefined)
  0.6%	-5.2%	x	-1.8	5.0%	6.4	x
O=C(COC(=O)CNS(=O)(=O)c1ccc(Cl)cc1)NC1CCCCC1
  -3.1%	x	-2.8	x	x	-0.8	2.3
CCC(Oc1ccc(F)cc1)C(=O)Nc1nc2c(s1)CCCC2 (centres undefined)
  2.6%	x	7.1	x	0.5%	x	0.4
COc1ccc(C2C=C(c3ccc(C)cc3)Nc3ncnn32)cc1 (centres undefined)
  5.2%	u	6.1	u	u	7.5	1.9
O=C(Nc1ccc(Br)cc1)c1cc(S(=O)(=O)NC2CCCC2)ccc1F
  1.8%	x	3.8	x	-3.5%	x	3.8
CCn1c(SCC(=O)Nc2cccc(S(=O)(=O)N(C)c3ccccc3)c2)nnc1C1CC1
  -1.9%	x	-16.5	x	-2.2%	6.1	2.2
CC(C)CN1CCN(CCCOC(=O)Nc2cccc3ccccc23)CC1C (centres undefined)
  -1.0%	x	1.1	x	x	x	-0.4
CCCCNc1c(-c2ccc(OC)c(SC(C)CC)c2)nc2cc(C)ccn12 (centres undefined)
  14.7%	x	72.1	x	27.3µM*!	x	1.2
